Bioassay records from PubChem BioAssay.
D2 agonist – human D2 receptor agonism in beta-arrestin assay; DiscoveRx PathHunter D2 beta-arrestin, luminescence, 90 min; 100% = 57 uM dopamine signal; activation, % (test concentration not listed); 0.084% of 360,000 active; AID 624465; in the data active = activation above about 40%; inconclusive = about 15% to 40%; inactive = below about 15%; note: compound concentration not given in the record; the text of the record calls up to 30% inactive
Target sequence (P14416 whole entry, looked up): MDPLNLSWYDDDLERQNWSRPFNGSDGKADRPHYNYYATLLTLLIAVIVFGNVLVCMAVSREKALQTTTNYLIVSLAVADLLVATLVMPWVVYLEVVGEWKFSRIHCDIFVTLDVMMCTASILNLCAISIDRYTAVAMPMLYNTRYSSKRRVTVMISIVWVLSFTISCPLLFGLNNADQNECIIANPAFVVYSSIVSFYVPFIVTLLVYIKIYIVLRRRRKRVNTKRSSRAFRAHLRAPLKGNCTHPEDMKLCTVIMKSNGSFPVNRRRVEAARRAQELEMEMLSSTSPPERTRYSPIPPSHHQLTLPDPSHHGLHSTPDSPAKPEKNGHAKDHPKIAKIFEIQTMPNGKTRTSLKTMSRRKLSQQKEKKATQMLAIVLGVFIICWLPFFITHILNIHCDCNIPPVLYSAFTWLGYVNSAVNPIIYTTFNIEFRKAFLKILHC
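DiscoveRx PathHunter D2 beta-arrestin cells (2,100/well) attached overnight, then compound-stimulated 90 min at 37 C in HBSS/10 mM HEPES/0.1% Tween-20 buffer; beta-galactosidase complementation read by luminescence after 1 h at ambient temperature. Dopamine 57 uM final (EC100) as control.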
gsp antagonist – antagonizes gsp, the McCune-Albright syndrome mutation | gsp-mutant cells, cAMP HTRF, 30 min; control for the full effect not named in the record | Potency, µM (doses to about 76.9 µM), for inactives: top-dose activity change, negative = inhibition, most hits filed as inhibitors | 0.4% of 340,000 active | AID 624288; active = falling curve of any shape with a large fitted effect; inconclusive = falling curve, mostly with a smaller effect; inactive = flat or rising curve; cell line not stated here;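 note: intracellular cAMP measured with PDE inhibitor Ro 20-1724 present during compound exposure; potency is the fitted concentration of half-maximal effect; % is set by controls: 0 for no effect and ±100 for the full control effect; nearly all actives have a fitted effect of over 65% in size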
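HTRF cAMP read-out (cAMP-d2 plus anti-cAMP antibody-K in lysis buffer, 30 min RT). Before lysis, cells are exposed to compounds with […] for 30 min at 37C in DPBS containing Ca/Mg, BSA and Tween 20.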
Menin MLL FP FL – menin-MLL binding inhibition, fluorescein peptide; Fluorescence polarization, fluorescein-MLL peptide displacement from menin; FP activity change, % at 61.4 µM; 290,000 tested, under 10 active; AID 1766; inconclusive = falling polarisation curve, or a change in total fluorescence; inactive = total fluorescence flat and polarisation flat or rising; no compound was filed as active; the % refers to the polarisation; negative = inhibition;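 note: % of control where 0% means no effect; inhibitors lower the polarisation; unlabelled MLL peptide was the positive control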
Sfp PPTase inh – inhibitors of Bacillus subtilis Sfp phosphopantetheinyl transferase; Q9F4F7; Biochemical Sfp PPTase activity, qHTS; Potency, µM, for inactives: max response, negative = inhibition, usual class: inhibitors; 3.5% of 310,000 active; active = well fitted inhibition curve with a large enough effect; inconclusive = small, poorly fitted or top-dose-only effect, or another doubt; inactive = no such curve, though single readings can be large or run the other way;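 note: the enzyme is Sfp with the accession as filed and its product quenches rhodamine fluorescence; potency is the fitted concentration of half-maximal effect; 0% = enzyme reaction without inhibitor and -100% = no enzyme wells; top concentration of the series not given in the record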
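After 15 min at room temperature with compound, 15 nM Sfp received 5 uM rhodamine-CoA plus 12.5 uM BHQ-2-ybbR (50 mM Hepes pH 7.6, 10 mM MgCl2). Rate came from the fluorescence difference over 30 min, ex 525/em 598 nm.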
PINK1 modulator – PINK1 expression modulation; PINK1 immunofluorescence, high-content cytometry, 24 h; Potency, µM (doses to about 76.6 µM), for the others: at the top dose activation (PINK1 increase), actives largely listed as activators; 0.2% of 410,000 active; AID 624263; active = well fitted activation curve with a large enough effect; inconclusive = small, poorly fitted or top-dose-only effect; inactive = flat fitted curve, though single readings scatter; cell line not stated here;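 note: potency is the fitted concentration of half-maximal effect; % of control where 0% means no effect; nearly all actives have a fitted effect of over 65% in size; a mitochondrial uncoupler was the plate control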
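Measures PINK1 amount and localization on or inside mitochondria by immunofluorescence. Stable cells get compounds at 5 concentrations for 24 hours before fixation and staining; CCCP controls included.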
ClpP mod – qHTS Assay for Activators of ClpP; ATP-dependent Clp protease proteolytic subunit (Bacillus subtilis (strain 168)), P80244; purified B. subtilis ClpP, FRET peptide cleavage, 20 min; Potency, µM (titrated, usually from 57.5 µM), for inactives: at the highest dose activity change, negative = active; 1.9% of 340,000 active; active = well fitted falling curve with a large enough effect; inconclusive = small, poorly fitted or top-dose-only effect; inactive = no such curve, though single readings can be large or run the other way; note: potency is the fitted concentration of half-maximal effect; the source files actives as falling curves though it sought activators and does not explain the sign; nearly all actives have a fitted effect of over 65% in size; many hits overshoot -100%
Target sequence (P80244 whole entry, looked up): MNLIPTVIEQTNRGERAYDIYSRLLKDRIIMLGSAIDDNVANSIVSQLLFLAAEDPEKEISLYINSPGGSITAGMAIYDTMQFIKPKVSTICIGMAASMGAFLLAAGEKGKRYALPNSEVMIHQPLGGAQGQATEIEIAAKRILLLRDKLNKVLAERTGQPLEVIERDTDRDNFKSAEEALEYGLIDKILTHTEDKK
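Purified B. subtilis ClpP, 10 microg/mL final in Tris/HCl pH8 with KCl, BSA, glycerol and Tween-20, cleaved an Abz/nitrotyrosine-quenched decapeptide. Fluorescence (ex 320, em 430) was read at 0 and 20 min at room temperature. Delta was normalized to 5.8 microM ADEP and DMSO/no-enzyme controls.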
gsp agonist – gsp mutant agonism. gsp mutant cells, cAMP HTRF, 30 min; control for the full effect not named in the record. Potency, µM (titrated, usually from 76.9 µM), inactives show top-dose activation (cAMP increase), most hits filed as activators. 0.13% of 340,000 active; active = well fitted activation curve with a large enough effect; inconclusive = small, poorly fitted or top-dose-only effect, or another doubt; inactive = no such curve, though single readings can be large or run the other way; cell line not stated here;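 note: phosphodiesterase inhibitor Ro 20-1724 added with compounds to block cAMP breakdown; potency is the fitted concentration of half-maximal effect; nearly all actives have a fitted effect of over 60% in size; about a fifth of the inactives were tested at one dose only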
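Cells in DMEM/10% FBS with G418 were pretreated with compounds in DMSO plus […] (300 uM stock) for 30 min at 37C. cAMP was measured by HTRF (cAMP-d2 plus anti-cAMP antibody-K) after 30 min at room temperature.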
Numbers without * were called inactive; ? = inconclusive; / = not tested or not shown; & = joins results of further samples; [ ] = another dose, or the depositor's remark.

SMILES	D2 agonist	gsp antagonist	Menin MLL FP FL	Sfp PPTase inh	PINK1 modulator	ClpP mod	gsp agonist
COc1cccc(C2C(C(N)=O)=C(C)Nc3nc(CCCO)nn32)c1 (stereo unspecified)	3.0	5%	0.0	8%	-2.9%&-0.4%	-4.3%&-1.9%	?
COc1ccc(CCN2C(=O)C3C(C2=O)C2C=CC3C23CC3)cc1OC (stereo unspecified)	-3.5	0%	-0.3	-3%	1.1%	/	14%[15.4 µM]
COc1ccc(-c2nn(-c3ccccc3)cc2C(=O)Nc2cccc(C(=O)O)c2)cc1[N+](=O)[O-]	-0.2	-20%	1.2	-5%	1.9%	-0.3%	-7%
CCn1cc(CN(C)S(=O)(=O)c2ccc3ccccc3c2)c(C)n1	1.4	-15%	5.1	2%	3.0%	1.6%	-2%
Cc1nc(NC2=NCN(Cc3cccnc3)CN2)nc2ccccc12	-2.2	10%	3.1	3%	-1.3%[38.3 µM]	-0.5%	-36%[inhibitor]
O=S(=O)(Nc1ccon1)c1ccc(Br)s1	2.5	-9%	/	8%	0.7%	0.4%	?
CCS(=O)(=O)N1CCC(C(=O)Nc2ccc(C(C)=O)cc2)CC1	-2.5	-4%	2.8	10%	-0.5%	0.1%	-19%
O=C(c1ccco1)N1CCCC(c2nc(-c3ccc(S(=O)(=O)NCc4ccccc4)cc3)no2)C1 (stereo unspecified)	4.5	-25%	1.1	2%	17%[38.3 µM]	-0.7%	5%
COc1ccc(N(C)C(=O)CN(C)S(=O)(=O)c2ccc3c(c2)c(=O)n(C)c(=O)n3C)c(OC)c1	1.1	3%	7.0	10%	1.2%	-5.5%	-18%
O=C(O)c1ccc(Cl)c(NC(=S)NC(=O)c2ccccc2[N+](=O)[O-])c1	-2.8	/	-4.8	50µM*	-0.5%	/	20%[15.4 µM]
CCCCCn1c(CN2CCN(Cc3ccccc3)CC2)nc2c1c(=O)[nH]c(=O)n2C	-3.1	-2%	0.6	15%	-0.6%[38.3 µM]	-1.6%	13%
N#Cc1cc(-c2ccccc2)cn(Cc2c(Cl)cccc2Cl)c1=O	-2.2	-3%	1.1	4%	2.0%[38.3 µM]	28µM*	?
Cc1cc2ncc(-c3ccccc3)nc2cc1C	-2.8	-14%	4.6	5%&3%	2.0%	-29%	12%
O=C(c1cnc2n(c1=O)CCS2)N1CCN(c2ccc(Cl)c(Cl)c2)CC1	1.2	-2%	4.0	2%	-0.2%	0.2%	-22%
N#Cc1ccc(-c2ccco2)nc1SCc1ccccc1	-4.6	?	10	-9%	5.3%	10µM*	29%
COc1cc(OC)cc(-c2sc3ccc(OC)cc3c2-c2ccc3cc[nH]c3c2)c1	-2.9	?	/	/	8.6%	?	5%
Cc1ccccc1NC(=O)OCc1cccnc1Oc1ccc(Cl)cc1	-2.9	-10%	0.6	8%	0.6%	/	3%[15.4 µM]
Cc1ccccc1OCC(=O)N/N=C/c1ccccn1	-3.8	4%	1.1	-54%	1.4%	-1.1%	27%
Cc1ccc(-c2nnc(SC(C)C(=O)NCC3CCCO3)nc2-c2ccc(C)cc2)cc1 (stereo unspecified)	1.1	-19%	/	/	-0.8%	-0.9%	-4%
COc1ccc(OC)c(C2CC(=O)N3CN(c4ccc(C)c(Cl)c4)CSC3=C2C#N)c1 (stereo unspecified)	-1.2	-14%	3.7	7.1µM*	5.7%	-0.6%	-15%
O=[N+]([O-])/C=C1\C=CC=CN1Cc1ccc(Cl)cc1	3.6	-9%	-3.2	14%	3.3%	/	6%
O=C(CC1CC2CCC1C2)NCCc1ccc(Cl)cc1 (stereo unspecified)	-0.9	6%	3.1	15%	7.2%	/	-1%[15.4 µM]
CC(C)(C)OC(=O)N[C@H]1C=C[C@@H](OC(=O)CC(=O)OCC(F)(F)F)C1	-3.1	-19%	/	/	0.4%	0.5%	/
C[C@@H]1CCC[C@@]2(O[C@H](CCO)C[C@@H](O)[C@@H]2O)O1	-3.8	10%	0.3	1%	1.6%	-0.7%	16%
Cc1ccc(S(=O)(=O)N2CCCC(C(=O)N3CCCc4ccccc43)C2)cc1 (stereo unspecified)	-5.5	?	1.9	16%	-3.0%	-4.1%	-11%
SMILES	D2 agonist	gsp antagonist	Menin MLL FP FL	Sfp PPTase inh	PINK1 modulator	ClpP mod	gsp agonist
CCOC(=O)NNC1CC(=O)N(c2ccccc2)C1=O (stereo unspecified)	2.8	13%	/	-8%	2.3%	-2.4%	10%
CCN(CC)c1ccc(/C=N/NC(=O)c2ccc([N+](=O)[O-])cc2)cc1	-5.4	0%	2.0	20%	0.5%	-0.4%	?
CN1CCN(C(=O)CCN2C(=O)c3ccccc3C2=O)CC1	-0.9	10%	1.3	3%	-0.5%	2.0%	-72%
C[C@H](CO)N1C[C@H](C)[C@@H](CN(C)Cc2ccc3c(c2)OCO3)Oc2cc(Br)ccc2S1(=O)=O	4.7	/	/	/	28%	-3.7%	-43%[inhibitor]
COc1cc(NC(=O)C(=O)Nc2ccc3nc4n(c(=O)c3c2)CCCCC4)cc(OC)c1OC	-2.7	9%	5.5	-4%	4.6%&11%	3.2%&-2.3%	4%
S=C(NCC1CCCO1)Nc1ccccc1 (stereo unspecified)	-0.4	10%	-3.3	-1%	-3.9%	/	24%
CCOC(=O)COc1ccc(C(c2c(C)[nH][nH]c2=O)c2c(C)[nH][nH]c2=O)cc1	-1.8	0%	2.6	27%	-1.0%	/	-23%
O=C(COC(=O)c1cnccn1)N=c1sccn1Cc1ccccc1Cl	-4.4	2%	/	/	-1.4%	1.2%	28%[15.4 µM]
CN(C)CCCNC(=O)c1cccc(-c2cnc3cccnn23)c1	-4.5	/	/	/	1.8%	5.2%	/
CC(=O)N1c2ccc(S(=O)(=O)N(C)CC(=O)Nc3cccc(C)c3)cc2CC1C (stereo unspecified)	-1.6	-16%	-2.5	16%	3.0%	0.4%	?
CCOC(=O)N1CCN(C(=O)NC23CC4CC(CC(C4)C2)C3)CC1	-0.6	-4%	0.3	3%	-0.2%	1.6%	-23%
CCN1CCc2[nH]c3ccccc3c2C1	6.3	9%	-6.5	-15%	0.2%	-9.2%	18%
CC1(C(=O)NCc2cccc3ccccc23)CCN1Cc1ccc2ccccc2c1 (stereo unspecified)	-5.0	/	/	/	?	-21%	/
COc1ccc(/C=N/c2c(-c3ccc(OC)cc3)nc3n2CCS3)cc1	5.4	-13%	0.1	-20%	6.7%[38.3 µM]	0.6%	5%
CC(C)(C)n1ncc2c(=O)n(CC(=O)OCc3ccccc3)cnc21	0.8	1%	1.9	-7%	2.1%	-22%	-1%
Cc1ccc2c(c1)N(C)/C(=C/c1cccc[n+]1C)S2	-3.1	-25%	27	-24%	?	/	12%
CC(C)(C)OC(=O)N1CCCC(C(=O)Nc2cccc(C(=O)NCCCc3ccccc3)c2)C1 (stereo unspecified)	-2.4	-21%	/	/	0.0%	-2.1%	/
Cc1cccnc1NS(=O)(=O)c1cccc([N+](=O)[O-])c1	1.9	8%	8.3	-13%	-0.6%	-10%	1%[15.4 µM]
CCC(=O)Nc1ccc(NC(=O)c2ccco2)c(OC)c1	1.5	3%	2.0	16%	-0.1%	0.2%	-7%
COc1cc(NC(=O)CSc2nnnn2Cc2ccc3c(c2)OCO3)cc(OC)c1	-2.7	17%	0.0	7%	3.1%	-2.5%	16%
CCC(C)Nc1nc(OC(C(F)(F)F)C(F)(F)F)nc(OC(C(F)(F)F)C(F)(F)F)n1 (stereo unspecified)	-0.6	-9%	-3.1	9%	3.1%	-0.5%	2%
CCOc1ccc(-c2ccc(SC)nn2)cc1	-1.8	-7%	2.3	8%	0.8%	/	-8%[15.4 µM]
COc1cccc(NC(=S)NCc2ccc(F)cc2)c1	4.8	-1%	-3.0	13%	2.4%	0.2%	15%[15.4 µM]
COc1ccc(CCNC(=O)CNC(=O)c2ccc(Br)o2)cc1OC	3.6	5%	/	/	3.1%	-0.3%	?
O=S(=O)(NCc1ccco1)c1ccc(S(=O)(=O)N2CCCCC2)cc1	-0.4	-3%	-0.3	2%	7.7%[38.3 µM]	-5.1%	1%
SMILES	D2 agonist	gsp antagonist	Menin MLL FP FL	Sfp PPTase inh	PINK1 modulator	ClpP mod	gsp agonist
COCCCn1c(-c2ccccc2Cl)n[nH]c1=S	3.4	3%	0.4	9%	-0.4%	25µM*	-12%
Cn1cccc1C(=O)N1CCC2(CCN(Cc3nccs3)CC2)CC1	/	/	0.4	5%	-0.5%	/	/
O=C(CCN1C(=O)c2ccccc2C1=O)N1CCN(c2ccccn2)CC1	-1.3	16%	-0.4	2%	?	6.0%	-15%
Cc1nc(SCC(=O)N(CC(C)C)C2CCS(=O)(=O)C2)c2ccccc2n1 (stereo unspecified)	-0.9	5%	/	/	0.1%	-15%	-5%
CN(C)c1ccc(CNC(=O)/C=C/[C@H]2O[C@@H](n3cnc4c(NC(=O)c5ccccc5)ncnc43)[C@H](O)[C@@H]2O)cc1	-1.8	/	/	/	3.6%	-8.5%	/
CC(=O)Oc1ccc2oc(-c3ccccc3)c(C(N)=O)c2c1	-4.4	8%	2.7	25%	-1.2%	3.1%	?
CCN(C(=O)CSc1nc2cc(S(=O)(=O)N(CC)CC)ccc2n1CC)C1CCS(=O)(=O)C1 (stereo unspecified)	-1.9	-12%	/	/	-0.1%	/	10%[15.4 µM]
OC(CSc1ccccc1Cl)CN1CCN(c2ccc(F)cc2)CC1 (stereo unspecified)	2.7	-6%	2.2	9%	?	-2.2%	-28%
O=C(OCCN(C1=NS(=O)(=O)c2ccccc21)c1ccc(Cl)cc1)c1ccco1	-4.1	-7%	3.3	4%	-0.9%	0.2%	-12%
CCc1ccc(NC(=O)CS(=O)CC(=O)Nc2ccc(-n3cnnn3)c(C)c2)cc1 (stereo unspecified)	-0.1	0%	-2.9	-6%	1.8%	/	-1%

Individual results from the results shown:
`CC(C)(C)OC(=O)N1CCCC(C(=O)Nc2cccc(C(=O)NCCCc3ccccc3)c2)C1` (stereo unspecified) in ClpP mod = -2.1%
`N#Cc1ccc(-c2ccco2)nc1SCc1ccccc1` in gsp agonist = 29%
